# Vaccinia Venus: inhibitors of vaccinia virus (Venus reporter). Vaccinia virus Venus reporter expression, fluorescence. Potency, µM (doses to about 36.5 µM), for inactives: at the highest dose activity change, negative = inhibition, actives largely listed as inhibitors. hit rate 0.46% among 330,000. AID 720580; active means well fitted inhibition curve with a large enough effect; inconclusive means small, poorly fitted or top-dose-only effect; inactive means no such curve, though single readings can be large or run the other way; tested in A549 cells; note: nearly all actives have a fitted effect of over 30% in size; inactives centre near -10
# Vaccinia mCherry: inhibitors of vaccinia virus infection (mCherry reporter signal). Vaccinia virus mCherry reporter infection, fluorescence; about a quarter of the inactives have no number. Potency, µM (doses to about 36.5 µM), for the others: at the top dose activity change, negative = inhibition, most hits filed as inhibitors. hit rate 0.63% among 310,000; active = well fitted inhibition curve with a large enough effect; inconclusive = small, poorly fitted or top-dose-only effect; inactive = no such curve, though single readings can be large or run the other way; tested in A549 cells; note: nearly all actives have a fitted effect of over 35% in size; inactives centre near -10
# Active calls of the source: *; i = inactive; ? = inconclusive; · = no result given; [ ] = dose if it differs, or a comment. % is set by controls: 0 for no effect and ±100 for the full control effect; potency is the fitted concentration of half-maximal effect.
1. COc1ccc2c(c1)c1ncn(CC3CCCO3)c(=O)c1n2C (stereo not given)
2. COc1ccc(-c2nnc(NC(=O)c3ccccc3C)o2)cc1
3. Cc1cccc(NC(=O)CN2C(=O)S/C(=C\c3cccn3-c3cccc(C(=O)O)c3)C2=O)c1
4. C[C@H]1CN([C@@H](C)CO)S(=O)(=O)c2ccc(Br)cc2O[C@H]1CN(C)C(=O)Cc1ccncc1
5. Cc1cc(C)c(C(=O)COC(=O)CN2C(=O)NC3(CCCC3)C2=O)cc1C
6. CCOc1ccc(CCNC(=O)c2cc(=O)[nH]c3ccc(S(=O)(=O)N4CCCCC4C)cc23)cc1OCC (stereo not given)
7. CC(C)[C@H](NC(=O)c1ccco1)C(=O)N(C)Cc1ccc(C(F)(F)F)cc1
8. O=C(c1ccc(CS(=O)c2ccccc2Cl)o1)N1CCOCC1 (stereo not given)

Compound	1	2	3	4	5	6	7	8
Vaccinia Venus	-7%	-11%	7%	3%	-12%	-7%[7.34 µM]	-7%	-4%[7.34 µM]
Vaccinia mCherry	i	2%	i	31%[activator]	i	-1%[7.34 µM]	-10%	-14%[7.34 µM]

9. C/C(=N\NC(=O)c1nnn(-c2nonc2N)c1-c1cccs1)c1cccnc1
10. CCOc1ccc(S(=O)(=O)Nc2cc(Cl)ccc2OC)c2cccnc12
11. CCN(CC)C1CCCCC1NS(=O)(=O)c1ccc(Cl)cc1 (stereo not given)
12. COc1ccc(Cl)cc1NC(=O)C1CCN(S(=O)(=O)c2ccc3c(c2)CCCN3C(=O)C2CCC2)CC1
13. Cc1cccc(Cn2c(SCC(=O)Nc3ccccc3)nc3c2c(=O)[nH]c(=O)n3C)c1
14. CC1=C(/C=C/C(C)=C/C=C/C(C)=C\CO)C(C)(C)CCC1
15. Cc1ccccc1OCC(=O)OCC(=O)c1cc(C)n(C2CC2)c1C
16. CCOc1cc(C=O)c(Br)cc1OC1CCCC1

Compound	9	10	11	12	13	14	15	16
Vaccinia Venus	-13%	-11%	-5%	-11%	-17%	-13%	-6%	-6%
Vaccinia mCherry	-21%	-20%	-24%	-14%	i	-19%	-11%	i

17. COc1cc(C(=O)NC(=S)N(CCc2ccccc2)CCc2ccccc2)cc(OC)c1OC
18. C[C@@H]1CN([C@H](C)CO)C(=O)CCCn2nncc2CO[C@@H]1CN(C)C(=O)Oc1cccc2ccccc12
19. CC(=O)c1c(C)[nH]c(C2=NNC(=NC(C)(C)C)SC2)c1C
20. Cc1occc1C(=O)N/N=C/C(Br)=C/c1ccccc1
21. Cc1cccc(NC(=O)CSc2nnc(Cc3ccccc3)o2)c1
22. CCN1CCCC1CNCc1ccccc1OCc1ccc(F)cc1 (stereo not given)
23. CC(=O)C[C@@H]1OC[C@H](C)N1S(=O)(=O)c1ccc(C)cc1
24. O=C(NNC(=O)c1ccc(F)cc1F)c1ccc(-n2cnnn2)cc1

Compound	17	18	19	20	21	22	23	24
Vaccinia Venus	-21%	-15%	0%	-6%	-4%	-22%	9%	-14%
Vaccinia mCherry	-6%	-8%	-7%	-6%	14%	-6%	-6%	-15%

25. Cc1cc(OCC(=O)C(C)(C)C)c2c(C)c(C)c(=O)oc2c1
26. COCCNC(=O)C1(C)C=CC2(CCCCC2)N1C(=O)c1ccccc1 (stereo not given)
27. COc1ccc([C@H]2CC(=O)C=C(c3cccc4c3sc3ccccc34)C2)cc1OC
28. Cn1c(=O)c2c(nc(SCC(=O)NC3CCCC3)n2C)n(C)c1=O
29. CCCCN1CC(=O)N2[C@H]3c4ccccc4OC[C@@H]3[C@H](C(=O)OCC)[C@]2(C)C1=O
30. CCc1ccccc1N(C)C(=O)Cn1cnc2sc(C)c(S(=O)(=O)N3CCN(c4ncccn4)CC3)c2c1=O
31. CCOc1ccc(-c2[nH]ncc2Oc2ccccc2OC)c(O)c1
32. COc1cc(C(=O)NNC(=O)C2CCCC2)cc(OC)c1OC

Compound	25	26	27	28	29	30	31	32
Vaccinia Venus	-1%	-1%	-23%	-3%	-5%	-9%	?	13%
Vaccinia mCherry	·	-9%	-12%	-13%	i	-5%	·	-3%

33. C/C(CC(=O)Nc1ccc2c(c1)OCCO2)=N\NC(=O)c1ccccc1Cl
34. CCOC(=O)C1C(C)=C(Nc2ccc(OC)cc2)C(=O)N1c1ccc(OC)cc1 (stereo not given)
35. CCC(c1nnnn1-c1ccc2c(c1)OCCO2)N1CCC2(CC1)C(=O)NCN2c1ccccc1 (stereo not given)
36. O=C(NC1CCN(Cc2ccccc2)CC1)c1cccc(S(=O)(=O)Nc2cc(C(F)(F)F)ccc2Cl)c1
37. O=C(COCc1cc(-c2ccco2)on1)Nc1ccc(OC(F)(F)F)cc1
38. CCOC1=C2CN(S(=O)(=O)c3ccc(C)cc3)C(c3cccc(Cl)c3)CC2N(S(=O)(=O)c2ccc(C)cc2)C(c2ccncc2)C1 (stereo not given)
39. COc1ccc(OC)c(CCNC(=O)c2nn(C)c3c2CS(=O)(=O)c2ccccc2-3)c1
40. COc1ccc(C(=O)NCc2nc(-c3cccc(NC(=O)c4ccc(C)s4)c3)oc2C)cc1

Compound	33	34	35	36	37	38	39	40
Vaccinia Venus	-22%	-1%	-2%	-22%	-3%	-17%	-16%	0%
Vaccinia mCherry	-16%	i	6%	-9%	-12%	?	-12%	-11%

41. COc1cc(C(=O)NCC(c2ccc(F)cc2)N2CCOCC2)ccc1OCc1ccccc1Cl (stereo not given)
42. O=C1c2ccccc2C(c2nnnn2Cc2ccccc2)N1C1CC1 (stereo not given)
43. CCn1ncc(Br)c1C(=O)Nc1ccc(-c2ccno2)cc1
44. O=c1[nH]c2ccc(S(=O)(=O)Nc3cc(Cl)ccc3O)cc2o1
45. COc1ccc(-c2cc(C(=O)N3CCCCCC3)no2)cc1OC
46. Cc1nnsc1Sc1ccccc1
47. Cc1noc(C)c1NC(=O)N(C)C[C@H]1Oc2c(NC(=O)C3CC3)cccc2C(=O)N([C@H](C)CO)C[C@@H]1C
48. CNS(=O)(=O)c1cnccc1N1CCN(c2cccc(Cl)c2)CC1

Compound	41	42	43	44	45	46	47	48
Vaccinia Venus	-12%	0%	13%[7.34 µM]	7%	-8%	-6%	-8%	-25%
Vaccinia mCherry	-18%	6%	12%[7.34 µM]	-6%	i	i	i	·

49. COc1cc2cc(CNc3ccccc3)c(=O)n(CC(=O)Nc3ccccc3)c2cc1OC
50. CCC(C)(C)NC(=O)/C=C/c1cccs1
51. O=C(CN1C(=O)NC2(CCCC2)C1=O)Nc1ccc(F)c([N+](=O)[O-])c1
52. CC(C)c1ccccc1Oc1c(C(F)(F)F)oc2c(CN3CCN(C)CC3)c(O)ccc2c1=O
53. Cc1noc2nc(C(=O)O)nc(N3CCCCC3)c12
54. CC[C@@]1(O)C(=O)OCc2c1cc1n(c2=O)Cc2cc3c(CN(C)C)c(O)ccc3nc2-1
55. O=C(c1cc(COc2c(F)cccc2F)on1)N1CCCCCC1
56. N#Cc1cc2c(nc1SCC(=O)NCc1ccc3c(c1)OCO3)CCCCC2

Compound	49	50	51	52	53	54	55	56
Vaccinia Venus	0%	-20%	-4%	0%	-4%	?	-5%	-17%
Vaccinia mCherry	-5%	i	-15%	13%	-1%	?	-9%	-18%

# 15 structures out of the list, arranged by number of heavy atoms, smallest number first:
50. CCC(C)(C)NC(=O)/C=C/c1cccs1
23. CC(=O)C[C@@H]1OC[C@H](C)N1S(=O)(=O)c1ccc(C)cc1
14. CC1=C(/C=C/C(C)=C/C=C/C(C)=C\CO)C(C)(C)CCC1
25. Cc1cc(OCC(=O)C(C)(C)C)c2c(C)c(C)c(=O)oc2c1
1. COc1ccc2c(c1)c1ncn(CC3CCCO3)c(=O)c1n2C (stereo not given)
45. COc1ccc(-c2cc(C(=O)N3CCCCCC3)no2)cc1OC
33. C/C(CC(=O)Nc1ccc2c(c1)OCCO2)=N\NC(=O)c1ccccc1Cl
29. CCCCN1CC(=O)N2[C@H]3c4ccccc4OC[C@@H]3[C@H](C(=O)OCC)[C@]2(C)C1=O
39. COc1ccc(OC)c(CCNC(=O)c2nn(C)c3c2CS(=O)(=O)c2ccccc2-3)c1
40. COc1ccc(C(=O)NCc2nc(-c3cccc(NC(=O)c4ccc(C)s4)c3)oc2C)cc1

Compound	50	23	14	25	1	45	33	29	39	40
Vaccinia Venus	-20%	9%	-13%	-1%	-7%	-8%	-22%	-5%	-16%	0%
Vaccinia mCherry	i	-6%	-19%	·	i	i	-16%	i	-12%	-11%

17. COc1cc(C(=O)NC(=S)N(CCc2ccccc2)CCc2ccccc2)cc(OC)c1OC
41. COc1cc(C(=O)NCC(c2ccc(F)cc2)N2CCOCC2)ccc1OCc1ccccc1Cl (stereo not given)
47. Cc1noc(C)c1NC(=O)N(C)C[C@H]1Oc2c(NC(=O)C3CC3)cccc2C(=O)N([C@H](C)CO)C[C@@H]1C
6. CCOc1ccc(CCNC(=O)c2cc(=O)[nH]c3ccc(S(=O)(=O)N4CCCCC4C)cc23)cc1OCC (stereo not given)
38. CCOC1=C2CN(S(=O)(=O)c3ccc(C)cc3)C(c3cccc(Cl)c3)CC2N(S(=O)(=O)c2ccc(C)cc2)C(c2ccncc2)C1 (stereo not given)

Compound	17	41	47	6	38
Vaccinia Venus	-21%	-12%	-8%	-7%[7.34 µM]	-17%
Vaccinia mCherry	-6%	-18%	i	-1%[7.34 µM]	?

# (listing goes on)
57. CCC(c1nnnn1CC1CCCO1)N(CCN1CCOCC1)Cc1cc2cc(C)ccc2[nH]c1=O (stereo not given)
58. COC(=O)c1sccc1NC(=O)COc1ccc(Cl)cc1Cl
59. COCC(=O)N1CCC(Oc2ccc(C(=O)N3CCCCCC3)cc2)CC1
60. O=C(Nc1cccc(O)c1)C(Cc1ccccc1)N1C(=O)c2cccc3cccc(c23)C1=O (stereo not given)
61. COc1ccc(/C=C/C(=O)O)cc1S(=O)(=O)NCc1ccco1
62. O=C(/C=C/c1cccc(Cl)c1)OCc1cn2cc(Cl)ccc2n1
63. Cc1ccc(O)c(NC(=O)CCC2CCCCC2)c1
64. Cc1c(C(=O)N2CCN(Cc3ccc4c(c3)OCO4)CC2)cccc1[N+](=O)[O-]

Compound	57	58	59	60	61	62	63	64
Vaccinia Venus	-16%	-1%	-16%	-11%	-4%	7%	?	-12%
Vaccinia mCherry	·	-10%	i	-2%	i	i	?	-2%

65. COc1ccccc1CCN1COc2c(cc3c(C)c(C)c(=O)oc3c2C)C1
66. O=c1c(C(c2ccc(O)cc2)c2c(O)nc3n(c2=O)CCCS3)c(O)nc2n1CCCS2
67. O=C(O)CSc1cn(Cc2ccccc2)c2ccccc12
68. O=C(CCc1cn(Cc2ccc(F)cc2)c2ccccc12)NC1CCCCC1
69. CN(CCC#N)C(=S)NC(=O)c1ccc(S(=O)(=O)N2CCOCC2)cc1
70. COc1ccc(CNC(=O)COC(=O)c2cccn2C)cc1
71. COc1ccc2[nH]cc(S(=O)(=O)c3ccc(F)cc3)c(=O)c2c1
72. CCCSc1ccc(-c2nn(-c3ccccc3)cc2/C=C(/C#N)C(=O)NCCCOC)cc1

Compound	65	66	67	68	69	70	71	72
Vaccinia Venus	-7%	-13%	-3%	-17%	-6%	-13%	?	-4%
Vaccinia mCherry	-12%	·	-6%	-17%	i	i	-15%	i

73. CC(=O)c1cccc(S(=O)(=O)N2CCCC(c3nc(-c4ccc(C)o4)no3)C2)c1 (stereo not given)
74. NNC(=O)c1ccc(CN2C(=O)c3cccc4cccc2c34)cc1
75. Cc1ccc2[nH]c3c(=O)n(CCc4cnc[nH]4)cnc3c2c1
76. OCCC#Cc1ccc(CN2CCN(Cc3ccccc3)C(CCO)C2)cc1 (stereo not given)
77. CCN(CC)c1nc(N2CCOCC2)c(C#N)c2c1CN(C)CC2
78. COCCNC(=O)c1ccc(CN2CCC(Cc3ccccc3)CC2)cc1
79. O=C(Nc1ccc(NC(=O)c2cccs2)cc1)c1ccc(Br)o1
80. O=C(ONC1=NCCCCC1)c1ccc(Cl)cc1

Compound	73	74	75	76	77	78	79	80
Vaccinia Venus	-18%	-3%	-1%	-8%	-19%	-11%	-11%	-5%
Vaccinia mCherry	?	-6%	·	i	·	i	·	·

81. O=C(Nc1nc(-c2cccs2)cs1)c1cccc(S(=O)(=O)N2CCCCC2)c1
82. CC(C)c1nn2c(=O)cc(COC(=O)CNC(=O)c3ccccc3)nc2s1
83. CCCC(C)(C)C(=O)N1CCC1(C)C(=O)NS(=O)(=O)c1cccc(Cl)c1 (stereo not given)
84. COc1ccc(C(=O)NCCc2nnc3ccc(SCC(=O)Nc4cc(C)on4)nn23)cc1
85. Cc1ccc(NC(=O)Nc2nnc(CSCCOc3ccc(Cl)cc3)s2)cc1
86. COC(=O)c1c(SC)nc2ccccc2c1OCc1ccc(C)cc1C
87. O=C(Cc1cccs1)Nc1nnc(-c2ccncc2)s1
88. Cn1c(=O)n(C)c2cc(NC(=O)COc3ccc(F)cc3F)ccc21

Compound	81	82	83	84	85	86	87	88
Vaccinia Venus	?	-8%	-5%	-8%	-15%	8%	-12%	-10%
Vaccinia mCherry	?	7%	i	i	i	-12%	-8%	i

# High-throughput results (PubChem)
